B2AR ag – beta2AR agonists driving receptor internalization, primary screen, cell-based, FAP fluorogen, flow cytometry; 340,000 compounds, 0.43% hits; response, % (no concentration beside the values); Am2.2-beta2AR cells; reference of the scale not given here;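 active means response above a set limit, near 3 SD of response in nonfluorescent compounds, cut at about 42% in these data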;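 further: stock transfer was 100 nL into about 11 µL; a reference agonist was the positive control; negative values mostly stem from fluorescent compounds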
Target sequence (P07550 whole entry, looked up): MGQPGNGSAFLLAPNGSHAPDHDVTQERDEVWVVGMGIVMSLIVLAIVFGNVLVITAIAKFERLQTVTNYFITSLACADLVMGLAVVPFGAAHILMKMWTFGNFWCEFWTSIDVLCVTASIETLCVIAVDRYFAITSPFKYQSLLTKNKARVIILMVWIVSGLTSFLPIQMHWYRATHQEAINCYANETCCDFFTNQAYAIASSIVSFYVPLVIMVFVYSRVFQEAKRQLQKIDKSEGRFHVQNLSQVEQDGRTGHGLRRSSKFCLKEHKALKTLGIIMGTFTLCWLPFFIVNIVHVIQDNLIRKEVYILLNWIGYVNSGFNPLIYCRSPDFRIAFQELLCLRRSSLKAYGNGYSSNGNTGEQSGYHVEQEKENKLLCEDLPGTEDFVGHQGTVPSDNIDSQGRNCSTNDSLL
UCH37 DUB inh – inhibitors of human UCH37 deubiquitinase, primary screen, biochemical, Ub-AMC cleavage, fluorescence | Ubiquitin carboxyl-terminal hydrolase isozyme L5 (Homo sapiens), Q9Y5K5 | purified proteasome/UCH37 | inhibition, % (test concentration not listed) | 330,000 compounds, 0.33% hits;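 active means mean of two replicates above 20%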;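 further: 0% = compound-free wells with enzyme and 100% = wells lacking proteasome; stock transfer was 100 nL into about 20 µL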
Target sequence (Q9Y5K5 whole entry, looked up): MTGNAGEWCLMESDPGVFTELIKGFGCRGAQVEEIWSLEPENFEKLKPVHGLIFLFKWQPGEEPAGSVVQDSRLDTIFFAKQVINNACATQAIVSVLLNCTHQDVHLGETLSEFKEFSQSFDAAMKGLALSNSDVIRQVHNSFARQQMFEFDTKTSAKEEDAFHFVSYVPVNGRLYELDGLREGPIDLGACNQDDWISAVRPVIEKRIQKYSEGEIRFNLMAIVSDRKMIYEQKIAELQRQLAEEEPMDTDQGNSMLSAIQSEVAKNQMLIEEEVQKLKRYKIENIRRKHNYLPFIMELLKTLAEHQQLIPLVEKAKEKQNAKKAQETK
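Signal – fluorescence, ex 355 nm, em 460 nm · System – Proteasome-bound UCH37 · Input – 0.15 nM proteasome as dispensed · Timing – 30 min preincubation with enzyme, 25 min cleavage at room temperature · Read-out basis – percent inhibition of cleavage signal versus uninhibited and no-proteasome wells · Medium – Tris-HCl pH 7.4 with ATP-MgCl2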
FGF22 binding – binders of human FGF22 protein, primary screen, FGF22 synaptogenesis inhibitor project, biophysical, thermal shift, single point; Fibroblast growth factor 22 (Homo sapiens), Q9HCT0; recombinant FGF22 thermal shift, SYPRO orange fluorescence; percent of sucrose octasulfate shift, DMSO zero; calls only at 9.99 µM; 340,000 compounds, 1.5% hits;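 active means melting point raised past a set limit in the mean and every replicate; three in four hits are not shown here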
HNF4A DNA FP – change in binding of human HNF4A to DNA, primary screen, biochemical, fluorescence polarization, FITC-DNA; Hepatocyte nuclear factor 4-alpha (Homo sapiens), P41235; 1 h; activity change, % at 10 µM; 360,000 compounds, 0.3% hits; in the data active means activity change above about 30%, passing the limit was not always enough;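 further: controls were the assay level and a saturating level of protein; the project sought stronger binding though the title names inhibitors; some compounds called inactive have numbers as strong as hits; positive values seem to mean higher polarization but the record does not say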
E coli growth – E. coli growth inhibition, primary screen, OD600; Escherichia coli growth, 23 h; hits give low values; OD600 absorbance (concentration not given with the values); 330,000 compounds, 0.21% hits; AID 1053175, 2014;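 active means OD600 absorbance below the run mean of sample wells minus 3.6 SD, in any replicate, cut at about 0.56 in these data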;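 further: stock transfer was 300 nL into about 60 µL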
LANA-H2B inh – blockers of LANA interaction with H2A/H2B – biochemical, FP readout, HTS, primary screen | inhibition, % (no concentration beside the values) | AID 2629, 2010 | cell-free LANA-H2A/H2B peptide, fluorescence polarization | 320,000 compounds, 0.6% hits | Protein LANA1 (Human herpesvirus 8 type P (isolate GK18)), Q9QR71; in the data active means inhibition mostly above about 10%, no sharp cut-off; inactive means mostly below about 6.7%;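 further: stock transfer was 7.5 nL into about 10 µL; 0% = median of vehicle wells and 100% = median of positive control wells; one replicate is shown; the record names a cut of 25% in any replicate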
ALR H2O2 inh – inhibitors of human ALR sulfhydryl oxidase, primary screen, biochemical, H2O2 detection, HRP-luminol luminescence, single point; 290,000 compounds, 3.8% hits; AID 485317, 2010; FAD-linked sulfhydryl oxidase ALR (Homo sapiens), P55789; inhibition, % (test concentration not listed); purified ALR, DTT oxidation;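 active means mean and each replicate at 75% or more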;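 further: stock transfer was 7.5 nL into about 7.5 µL; 0% = neutral wells and 100% = wells with inactivated enzyme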
Target sequence (P55789 whole entry, looked up): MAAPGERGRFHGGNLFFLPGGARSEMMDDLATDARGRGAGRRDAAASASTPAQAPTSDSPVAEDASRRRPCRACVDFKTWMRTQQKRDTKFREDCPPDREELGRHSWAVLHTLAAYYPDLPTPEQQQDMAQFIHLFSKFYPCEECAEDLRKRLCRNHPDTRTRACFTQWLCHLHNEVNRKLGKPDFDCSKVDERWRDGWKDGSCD
An asterisk follows results filed as active; i = inactive; . = not tested or not shown. Not all compounds are listed, so the mix of outcomes need not match the whole.

SMILES	B2AR ag	E coli growth	LANA-H2B inh	HNF4A DNA FP	ALR H2O2 inh	UCH37 DUB inh	FGF22 binding
CCN1CCN(CC(=O)Nc2cc(S(=O)(=O)N3CCCCC3)ccc2Cl)CC1	-0.2	0.659	0.1	3.3	0.5	2.5	i
CC1(C)CC2CC(C)(CN2S(=O)(=O)c2ccccc2[N+](=O)[O-])C1 (centres undefined)	4.2	0.642	5.1	-2.8	.	3.0	i
CC(=O)c1nnn(-c2ccc([N+](=O)[O-])cc2)c1C	-6.9	0.65	-3.1	-0.6	-17.3	0.1	i
CC(C)Cc1nnc(NC(=O)c2cc3c(s2)CCC3)s1	2.9	0.718	3.9	3.2	-9.4	-3.0	i
O=C(OC1CCOC1=O)C1CCN(S(=O)(=O)c2ccccc2)CC1 (centres undefined)	-5.0	0.659	5.5	2.6	-3.6	2.7	i
CCOC(=O)/C(C#N)=C/N=c1ccc(C)cn1C	-3.8	.	-5.5	2.0	1.7	.	i
Cc1ccc(S(=O)(=O)N2CCC(C(=O)NCCCOC(C)C)CC2)cc1	-3.3	0.66	2.8	0.7	-4.5	2.3	i
CS(=O)(=O)N1N=C(c2ccco2)CC1c1ccccc1 (centres undefined)	4.4	0.681	0.7	0.7	4.6	2.1	i
COC(=O)c1cccc(NC(=O)c2ccc3c(c2)C(=O)N(CC2CCCO2)C3=O)c1 (centres undefined)	3.7	0.697	-0.4	0.4	9.3	2.6	.
COc1ccc(C(=O)c2cc3c(cc2[N+](=O)[O-])OCCO3)cc1	23.5	0.735	-1.6	-0.2	.	5.8	i
Cc1cc(OCCOCCN2CCCC2)ccc1C(C)C	4.8	0.698	1.3	-3.8	-6.4	-0.9	.
O=C(Cn1nnc(-c2ccc(N3CCOCC3)cc2)n1)OC1CCCCC1	9.1	0.742	0.4	0.8	-3.3	4.5	.
COc1ccc(C(=O)c2c[nH]c(C(=O)N=CN(C)C)c2)cc1	0.9	0.597	0.7	4.6	.	3.5	i
COc1nc(OCC#N)nc(N(C)C)n1	-1.6	0.683	12.1	-0.5	-12.9	-0.9	.
O=C(O)c1cc2nccc(-c3ccco3)n2n1	0.9	0.663	0.8	-7.2	.	-109.2	i
O=C(Nc1ccc(F)cc1)C1CCCN(S(=O)(=O)c2ccc(-n3cnnn3)cc2)C1 (centres undefined)	-5.3	0.705	-0.7	-1.6	-1.4	2.9	i
O=C(CN(Cc1ccccc1)C(=O)c1cccc([N+](=O)[O-])c1)Nc1c(Cl)cc(Cl)cc1Cl	2.0	0.713	-0.1	-0.7	-13.3	2.7	i
CCCN1C(=O)c2ccccc2NC1c1ccc(C)cc1 (centres undefined)	-3.2	0.66	0.9	9.0	19.8	-408.7	i
COc1cccc(C(=O)NCCS(=O)(=O)NCc2cccs2)c1	2.5	0.593	0.3	-1.6	-2.6	1.6	i
CC(C)[C@H](NC(=O)c1ccccc1F)C(=O)OCC(=O)NC1CC1	5.5	0.68	-2.8	-4.6	-0.6	3.3	i
C=CCNC(=S)Nc1ccc2nc(C)c(C)nc2c1	-5.7	0.686	1.4	-0.9	-17.6	4.2	.
O=C(C[n+]1cccc(Br)c1)c1ccc(-c2ccccc2)cc1	4.2	0.622	0.5	2.8	72.2	3.4	i
Cc1cc(C)cc(NC(=O)N2CCCN(c3ncccc3[N+](=O)[O-])CC2)c1	0.9	0.652	14.1*	-1.2	0.2	6.6	i
COc1ccc(/C=N/n2c(N)nc3ccccc32)cc1OC	-12.4	.	0.0	1.3	-6.1	.	.
COc1ccc(-n2ncc3c(N4CCc5ccccc54)ncnc32)cc1	-7.3	0.745	0.2	4.1	-1.9	-98.5	.
O=C(COc1ccc(Cl)cc1Br)Nc1cccc(S(=O)(=O)N2CCCC2)c1	8.9	0.705	7.2	-1.5	-12.4	4.1	i
c1ccc(-n2cnc3ccccc32)nc1	-17.1	0.678	0.4	-1.2	-26.2	1.9	.
CC1(O)N(CCC(=O)Nc2cccc(F)c2)C(=O)OC12CCCCC2 (centres undefined)	1.3	0.677	-5.7	-1.0	.	4.8	i
Cc1cc(=O)oc(C)c1C(=O)NCc1cccnc1	-1.1	0.701	1.4	4.6	16.9	16.0	i
COC(=O)Cn1c(=NC(=O)CSC(C)=O)sc2ccccc21	2.3	0.739	-2.7	3.7	.	5.6	i
O=C(c1cc(C2CC2)nn1-c1ccccc1)N1CCN(S(=O)(=O)c2cccc(F)c2)CC1	19.2	0.682	1.1	5.8	-45.5	2.6	i
C=CCSc1nnc(-c2cc3c(s2)-c2ccccc2CC3)o1	-1.0	0.718	4.1	-1.2	-17.9	i	.
Cc1cccc2sc(NNC(=O)c3cc(=O)c4ccccc4o3)nc12	-3.7	.	3.6	4.7	.	.	i
Cc1ccc(S(=O)(=O)Nc2c(C)n(C)n(-c3ccccc3)c2=O)cc1C(=O)NCc1ccccc1	-7.1	0.682	-2.2	-3.9	2.8	4.0	i
Cc1ccc(N2CC(C(=O)NCc3nnnn3-c3ccc(C)c(C)c3)CC2=O)cc1 (centres undefined)	-0.2	.	-4.6	4.5	-2.0	.	i
CCc1cccc(C)c1NC(=O)CCCN1C(=O)NC(C)(C)C1=O	-5.5	0.66	6.4	2.8	-0.6	2.0	i
O=S(=O)(N1CCCCCC1)N1CCN(S(=O)(=O)N2CCCCC2)CC1	3.4	0.696	.	-2.9	.	0.5	i
O=[N+]([O-])c1ccc(N2CCCC2)nc1	-7.9	0.654	0.4	0.8	-20.9	6.0	i
O=C1[C@H]2[C@@H](/C=C/c3ccccc3)N3C(=O)CN(CC4CC4)C(=O)[C@@]3(Cc3ccccc3)[C@H]2C(=O)N1c1ccccc1	-8.0	.	-2.8	0.9	2.5	3.0	i
O=C(CSc1ncnc2ccccc12)N1CCNC1=O	-4.1	0.643	-12.6	-0.2	8.9	3.4	i
CC1CCCC(NC(=O)CSc2ncnc3ccccc23)C1C (centres undefined)	9.9	0.595	0.1	-0.1	55.9	1.2	i
COc1ccc(OCc2nnc(SCC(=O)Nc3cccc(C(C)=O)c3)o2)cc1	-1.9	0.704	-0.2	1.8	98.7*	4.3	i
COc1ccc(-c2nc(C)ncc2-c2ccccc2)c(O)c1	-6.2	0.664	3.5	0.4	15.5	0.5	i
NC(=S)N/N=C/c1coc2ccc(Br)cc2c1=O	10.4	.	2.0	4.9	-7.2	.	i
COc1cccc(NC(=O)COC(=O)Cn2c(C)csc2=O)c1	-3.5	0.655	3.0	-1.0	-6.1	-2.2	i
CCN1CCCC1CNC(=O)CN(C)S(=O)(=O)c1ccc(Cl)cc1 (centres undefined)	-7.2	0.697	-2.0	-0.8	1.9	2.3	i
CCOC(=O)C1CCCN(C(=O)Cn2ncc3c([nH]c4ccc(C)cc43)c2=O)C1 (centres undefined)	5.2	0.648	-1.2	-1.7	1.2	-24.3	i
O=C(OCC(=O)N1CCCC1=O)C1COc2ccccc2O1 (centres undefined)	-2.4	0.676	-3.9	-3.0	-9.9	0.2	i
Cc1cc(S(=O)(=O)NCc2cccnc2)ccc1-n1cnnn1	3.4	0.65	1.4	-0.8	-34.1	3.6	i
CCC(C)NCCOc1cccc(Br)c1 (centres undefined)	2.9	0.696	1.3	3.8	-8.0	2.8	i
CCCCn1c(CN2C(=O)c3ccccc3C2=O)nc2ccccc2c1=O	-1.1	0.774	-6.0	-2.2	.	5.6	.
CCC(CO)Oc1cc(NCc2ccc(C)cc2)c2ncn(C(C)C)c2c1 (centres undefined)	-3.0	0.625	-0.6	-0.9	30.0	1.0	i
O=C(Nc1ccc(F)cc1F)c1cc(-c2ccco2)nc2ccccc12	0.0	0.676	-1.0	5.1	.	-167.6	i
Fc1ccc(CSc2ncnc3c2ncn3C2CCCCO2)cc1 (centres undefined)	11.3	0.702	.	-1.8	.	-1.9	i
CCOc1ccc(S(=O)(=O)N2CCC(C(=O)OC(C)C(=O)N(C)C3CCCCC3)CC2)cc1 (centres undefined)	-2.5	0.662	2.7	-1.9	-1.8	0.8	i
CN(C)CCOC(=O)CCCCCCCCC(=O)OCCN(C)C	-2.7	0.697	-1.1	6.8	6.7	2.5	i
C/C(N)=C(/C#N)C(=O)CSc1nnnn1-c1ccccc1	-4.6	0.75	1.1	-2.2	-3.2	5.4	.
Cc1ccc(OCC(=O)Nc2ccncc2)cc1	-0.5	0.588	-5.3	-0.8	-14.7	2.3	i
CC(=O)N(C)c1ccc(NS(=O)(=O)c2cc(Cl)ccc2Cl)cc1	1.6	0.666	-3.1	0.7	-12.0	4.1	i
Cc1ccc(NC(=O)CN2CCC(NC(=O)c3ccccc3F)CC2)cc1C	1.7	.	-1.0	-3.9	-8.6	.	i

Next part
SMILES	B2AR ag	E coli growth	LANA-H2B inh	HNF4A DNA FP	ALR H2O2 inh	UCH37 DUB inh	FGF22 binding
O=C(NC(=S)NCc1ccccc1)c1cccc([N+](=O)[O-])c1	-19.2	0.683	-2.6	-6.1	5.8	-1.1	i
COc1ccc(S(=O)(=O)N2CCCCC2)cc1NC(=O)Cc1sc(C)nc1-c1ccc(F)cc1	3.4	0.717	.	-0.2	.	3.2	i
O=C(COC(=O)C1CC1)Nc1c(Cl)cccc1C(F)(F)F	-0.3	0.702	-3.7	3.6	-6.3	1.5	i
Cc1cccc(NC(=S)NN2CCN(C)CC2)c1C	3.7	0.762	1.3	0.6	5.9	3.3	.
CCOc1ccc(Br)cc1S(=O)(=O)NCCN(C)C	4.4	0.726	-3.5	0.6	12.3	1.5	.
CC(=O)N1C(Nc2ccc(Cl)cc2)CCN1c1ccccc1 (centres undefined)	6.8	0.717	-5.4	-0.2	33.2	1.2	.
CCOc1ccc(CNC(=S)NCc2ccc(OCC)cc2)cc1	-7.1	0.702	4.1	0.5	-11.3	0.8	i
CCOC(=O)c1cnc(-n2nc(C)cc2C)nc1NC(C)c1ccccc1 (centres undefined)	-17.0	0.601	-0.6	-0.8	-1.4	-2.8	.
COc1ccc(C(=O)NC2CCCc3c2cnn3-c2cc(F)cc(F)c2)c(OC)c1OC (centres undefined)	-7.9	0.734	-2.9	0.2	-9.6	-1.6	i
CCOC(=O)C1(C)/C(=N/Nc2ccc(Cl)cc2)C(=O)C(=O)N1c1ccccc1 (centres undefined)	-5.5	0.701	2.0	6.2	98.5*	9.0	.
CSc1ccc(CCNC(=O)CCc2nnc3ccc(N4CCOCC4)nn23)cc1	0.5	0.747	3.2	8.2	-7.2	2.1	i
COCCC(=O)N1CCc2ccc(NC(=O)c3ccc(C(F)(F)F)cc3)cc2C1	1.9	0.656	-2.6	2.2	.	1.0	i
COc1cccc(NC(=O)c2c(C)cc(C)cc2CC(C)(C)C(=O)O)c1	1.5	0.647	5.5	3.2	-15.0	3.0	i
CCOc1ccc(N(CC(=O)NC2CCCCC2)C(=O)CCC(=O)Nc2nc(C)cs2)cc1	10.5	0.696	1.5	5.2	-3.1	-1.9	i
O=C(COC(=O)CNC(=O)c1cccc([N+](=O)[O-])c1)Nc1cccc(S(=O)(=O)N2CCCC2)c1	-0.9	0.696	9.7	-0.4	-5.0	4.4	.
COc1cccc(C(=O)NCC2(c3ccc(OC)c(OC)c3)CCCC2)c1	0.9	0.704	-3.6	2.7	-7.3	2.5	i

Bioassay records (PubChem BioAssay)
